Screening results as filed in PubChem.
Autofluor counter – flagged as autofluorescent in microsphere protease counterscreen; compound autofluorescence counterscreen, microsphere flow cytometry; active compounds read high; fluorescence intensity (no concentration beside the values); actives 3.1% (n = 360,000);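 active means at least 3 SD above the mean of all compounds, about 16000 in these data; inconclusive means too few beads counted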;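 further: 100 nL of 1 mM stock went into each well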
RN4220 kill – growth inhibition of S. aureus RN4220, primary screen, OD600. inhibition, % (no concentration beside the values). AID 1259311, 2017. 16 h. actives 0.33% (n = 330,000);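 active means z-score of -3 or lower and OD600 up to 0.18 on both plates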;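 further: plate controls were untreated cells for no effect and reference antibiotic for full effect; stock transfer was 100 nL into about 80 µL; one replicate is shown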
BJeLR lethal – MLPCN primary cell-based screen for lethality selective to Ras in HRASV12 cells. AID 1554, 2009. actives 0.17% (n = 300,000). BJeLR (HRASV12) viability, CellTiter-Glo ATP luminescence, 48 h; reference of the scale not given here. inhibition, % (concentration not given with the values);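 active means replicate mean above 50%; inconclusive means above 50% but judged a plate artefact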;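 further: 50 nL library stock added to about 25 µL; numbers are from one replicate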
ugtP null kill – growth inhibition of ugtP-null S. aureus, primary screen, RN4220 ugtP deletion, OD600. actives 0.54% (n = 330,000). AID 1259309, 2017. 16 h; some inactives read as strong as hits. growth inhibition, % (concentration not given with the values);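 active means z-score under -3 and OD600 up to 0.15 on both plates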;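 further: plate controls were untreated wells for no effect and antibiotic for full effect; wells of about 80 µL received 100 nL stock; the first replicate is given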
Mtb hypoxia inh – PubChem AID 1159583; M. tuberculosis hypoxia-regulated fluorescent reporter, fluorescence; fluorescence inhibition, % (no concentration beside the values); actives 0.1% (n = 300,000);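 active means 35 to 45% if threefold the growth effect, above 45% if 1.5-fold the growth effect; inactive means the rest, general growth blockers included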;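 further: wells of about 50 µL received 100 nL stock; 0% = vehicle wells and 100% = reference inhibitor wells; whole bacteria with a GFP reporter of the hypoxia response; strong numbers were not always called active; many hits fall short of the cut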
PrP UTR inh – inhibition of PrP 5' UTR reporter expression; cell-based PrP 5' UTR mRNA reporter, plate reader; inhibition, % (test concentration not listed); actives 0.35% (n = 340,000); AID 488862, 2010;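 active means every replicate at 50% or more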;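 further: 0 = median of the neutral control wells; tested in H4 reporter cells; numbers are from one replicate; inactives centre near -14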
Mtb hypoxia inh growth – second read-out of Mtb hypoxia inh, no call of its own (marks repeat the call); growth inhibition, %; measured here: M. tuberculosis growth (absorbance);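 0% = vehicle and 100% = reference antibiotic; read after six days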
An asterisk follows results filed as active; ? = inconclusive; nt = no result given.

The first three compounds, to show the layout:
SMILES | Autofluor counter | RN4220 kill | BJeLR lethal | ugtP null kill | Mtb hypoxia inh | Mtb hypoxia inh growth | PrP UTR inh
COC(=O)C1=C(c2ccc(S(C)(=O)=O)cc2)CC2CCC1N2C(=O)NCc1ccc(C(F)(F)F)cc1 (stereo unspecified) | nt | 1.2 | nt | -10.1 | 5.7 | 9.0 | nt
Cc1ccc(S(=O)(=O)Nc2ccc(Br)cc2C=Nn2cnnc2)cc1 | nt | 12.4 | nt | 5.6 | -7.4 | -8.5 | nt
O=C(CCC(=O)OCc1ccc(Br)cc1)Nc1ccccc1 | 9259 | 2.6 | -7.7 | 7.1 | 3.7 | 1.0 | -16.3

All compounds of this part (from the top)
SMILES | Autofluor counter | RN4220 kill | BJeLR lethal | ugtP null kill | Mtb hypoxia inh | Mtb hypoxia inh growth | PrP UTR inh
COC(=O)C1=C(c2ccc(S(C)(=O)=O)cc2)CC2CCC1N2C(=O)NCc1ccc(C(F)(F)F)cc1 (stereo unspecified) | nt | 1.2 | nt | -10.1 | 5.7 | 9.0 | nt
Cc1ccc(S(=O)(=O)Nc2ccc(Br)cc2C=Nn2cnnc2)cc1 | nt | 12.4 | nt | 5.6 | -7.4 | -8.5 | nt
O=C(CCC(=O)OCc1ccc(Br)cc1)Nc1ccccc1 | 9259 | 2.6 | -7.7 | 7.1 | 3.7 | 1.0 | -16.3
COC(=O)c1c(NC(=O)C2SC(=NC3CCCCC3)C(C(N)=O)=C2N)sc2c1CCCC2 (stereo unspecified) | 11489 | -2.8 | -3.5 | 1.8 | 7.6 | -2.6 | -12.0
C=CCc1c(C)nc2c(-c3ccccc3)cnn2c1N1CCOCC1 | 4257 | 0.5 | 3.1 | -1.4 | 1.3 | -5.4 | nt
NC(=O)C(=O)N/N=C/c1cccc(C(F)(F)F)c1 | 4618 | nt | -5.9 | nt | nt | nt | -21.8
COc1ccc(S(=O)(=O)N2CCCCC2)cc1NC(=O)c1ccccc1 | ? | 5.0 | 2.9 | 10.9 | 10.9 | -4.4 | -17.1
CC(C)(C)c1ccc(C(=O)Cn2nc(C(=O)O)c3ccccc3c2=O)cc1 | ? | -2.3 | 5.3 | -3.6 | -6.8 | -8.8 | -9.8
CCn1cc(CN2CCC(n3nccc3NC(=O)Cc3ccccc3)CC2)cn1 | 5965 | 5.4 | 3.9 | 12.0 | 1.5 | 1.9 | 0.4
O=C(Cc1ccc([N+](=O)[O-])cc1)Oc1ccccc1 | 2914 | 3.4 | nt | 4.9 | 24.4 | 6.6 | 48.9
COc1ccc(N=C2SC(C(=O)O)CC(=O)N2Cc2ccc(OC)c(OC)c2)cc1 (stereo unspecified) | ? | 0.5 | 5.4 | 0.0 | 0.7 | -0.8 | -7.5
CCNc1nc(NC(C)CC)nc(ON=C(C)C)n1 (stereo unspecified) | 4725 | 2.9 | 1.7 | 4.4 | 2.1 | 8.5 | -15.3
COc1cc(NC(=O)C(=O)NCCN2CCNCC2)c(OC)cc1Cl | ? | 1.6 | -4.6 | 0.6 | 9.6 | 7.5 | -21.0
O=C(CSCC(=O)Nc1ccccc1)NN=Cc1c(O)ccc2ccccc12 | nt | -2.5 | nt | 13.3 | 7.9 | 7.7 | nt
Cc1nc2ccc(Cl)cn2c1C(=O)NN | 2225 | 4.5 | 3.6 | -4.0 | 1.2 | -2.9 | -16.1
C=CCOC(=O)C1=C(C)NC(SCC(=O)Nc2ccccc2)=C(C#N)C1c1ccco1 (stereo unspecified) | 2975 | -3.7 | -0.5 | -3.9 | 7.9 | 2.2 | -5.4
Cc1ccccc1-c1nc2ccccc2c(=O)n1N=Cc1ccc([N+](=O)[O-])cc1 | nt | -0.4 | nt | -6.1 | 7.0 | 0.7 | nt
O=C(CCC(=O)NN=Cc1ccccc1O)NCc1ccccc1 | nt | 5.4 | nt | 11.3 | 5.9 | 4.7 | nt
O=C(Cc1ccc(O)cc1)NC1CCCCCC1 | 5341 | -1.0 | 4.9 | 7.5 | 11.2 | 11.1 | -25.0
COCCCNc1nc2nonc2nc1N1CCC(C(C)N2CCOCC2)CC1 (stereo unspecified) | 4407 | -0.1 | -7.7 | 3.7 | 3.5 | 1.0 | -12.4
CCOC(=O)c1c(NC(=O)CSc2nnc(-c3c[nH]c4ccccc34)n2C)sc2c1CCCC2 | 6914 | -4.3 | -5.4 | 0.7 | 6.8 | 5.7 | -29.6
CN1CCN(Cc2c(C#N)c3ccccc3n2C)CC1 | 19926* | 4.5 | -9.4 | -10.2 | 4.0 | 15.1 | -11.9
CCOC(=O)c1cc2c(C)n(-c3ccc(OCC)cc3)c(C)c2ccc1=O | nt | 0.7 | 1.8 | -26.3 | 5.6 | 4.2 | -28.2
COc1ccc(C2C(C(C)=O)=C(O)C(=O)N2c2ccc(Br)cn2)cc1 (stereo unspecified) | 4916 | 4.7 | 10.8 | 0.0 | nt | nt | -20.8
COc1ccc(S(=O)(=O)Nc2ccccc2C(=O)OC2CCCN(C)C2)cc1OC (stereo unspecified) | 3231 | -0.2 | 0.4 | 7.9 | nt | nt | -29.1
Other compounds.
SMILES | Autofluor counter | RN4220 kill | BJeLR lethal | ugtP null kill | Mtb hypoxia inh | Mtb hypoxia inh growth | PrP UTR inh
O=C(COc1coc(CN2CCN(c3ccc(F)cc3)CC2)cc1=O)Nc1ccccc1 | ? | 1.1 | 7.1 | 3.4 | -2.2 | -2.3 | -9.3
Cc1ccc2c(c1)N(C(=O)CCC(=O)NCc1ccccc1)CC(C)O2 (stereo unspecified) | 4371 | 1.1 | -1.6 | 10.3 | nt | nt | -5.6
COC(=O)[C@@]12CCCN1[C@H](c1ccc(-c3ccccc3)cc1)[C@H]1C(=O)N(C)C(=O)[C@H]12 | 3041 | nt | -4.3 | nt | nt | nt | -1.1
COc1ccccc1Nc1nnc(SCC(=O)c2c(N)n(C3CC3)c(=O)[nH]c2=O)s1 | 3635 | 5.1 | nt | -2.6 | 18.9 | 11.2 | -20.3
CC(C)CC(CSc1ccc(Br)cc1)N1CCN(CC(C)C)CCC1=O (stereo unspecified) | nt | 3.1 | nt | 5.9 | 2.6 | 4.5 | nt
O=C(NCc1nnc(SCC(=O)N2CCCCCC2)o1)c1ccco1 | 4392 | 1.4 | 5.9 | -2.2 | nt | nt | -10.0
CN=c1scc(-c2ccc(Cl)cc2)n1C | 2613 | 6.9 | -4.3 | 1.7 | -0.6 | -6.8 | -17.4
NC(=O)c1ccccc1NC(=O)Nc1cccc(Cl)c1Cl | 10123 | nt | 0.2 | nt | nt | nt | -17.8
COc1ccccc1NC(=O)COC(=O)Cn1cnc2c1c(=O)n(C)c(=O)n2C | 8223 | 0.1 | nt | -3.9 | 3.6 | 9.5 | -15.7
N#CCCn1cc(C(=O)N2CCCCC2)c(-c2ccc([N+](=O)[O-])cc2)n1 | 4634 | 4.8 | -21.2 | 1.0 | 9.2 | -8.2 | -23.3
O=C(OCc1cccc(C(F)(F)F)c1)c1ccc[nH]c1=O | 3985 | 3.6 | -5.3 | 5.5 | 1.8 | 1.1 | -22.2
Cc1ccc(-c2nc(CS(=O)(=O)CC(=O)NCc3ccc4c(c3)OCO4)c(C)o2)cc1 | 5453 | 2.8 | -5.7 | 3.8 | -3.0 | -5.0 | -7.8
CC(=O)N1CCN(c2ccc(NS(=O)(=O)c3ccc(C)cc3)cc2)CC1 | 3903 | 6.0 | -2.4 | 0.4 | 12.5 | 3.1 | -12.5
CCOc1ccc(C(=O)NC(C)C2COc3ccccc3O2)cc1 (stereo unspecified) | 4180 | 4.1 | 3.8 | 9.6 | 4.2 | 21.8 | -6.6
CC(=O)c1ccc(NC(=O)c2cc(-c3cccs3)on2)cc1 | 4970 | -3.5 | -12.4 | 0.8 | -5.4 | -2.8 | -24.3
CC(C)OCCCN1C(=O)c2[nH]nc(-c3ccccc3O)c2C1c1cccc(Cl)c1 (stereo unspecified) | 3772 | -2.3 | -2.1 | -10.3 | 0.4 | 4.3 | -9.9
Cn1c2ccccc2c2nn(-c3ccccc3)c(=O)cc21 | 11492 | 3.6 | 0.8 | 2.8 | 9.1 | 9.5 | 2.1
COc1ccc(N2CCN(C(=O)CSc3nnc(NC(=O)C4CCC4)s3)CC2)cc1 | 4911 | 6.2 | 0.9 | 0.8 | 4.3 | 12.2 | -14.8
Cc1ccccc1NC(=O)CSc1n[nH]c(-c2ccccn2)n1 | 5393 | 0.5 | 3.7 | -6.8 | 2.0 | -1.1 | -17.4
CC(c1ccccc1)N1CCN(C(=O)CCl)CC1 (stereo unspecified) | 4251 | 6.2 | 4.1 | -0.1 | nt | nt | -22.3
O=C(c1ccco1)N1CCN(C(c2ccccc2)c2nnnn2C2CCCC2)CC1 (stereo unspecified) | 4736 | 2.8 | -10.2 | -7.2 | nt | nt | -21.9
Cc1ccc(N2CC(C(=O)N3CCN(Cc4ccc5c(c4)OCO5)CC3)CC2=O)cc1 (stereo unspecified) | 5180 | 1.4 | -6.6 | 4.5 | 4.1 | 10.0 | -12.3
O=C1c2oc3ccc(Br)cc3c(=O)c2C(c2cccc(F)c2)N1CCO (stereo unspecified) | 5129 | -2.6 | -1.0 | 13.9 | nt | nt | -3.1
COc1cc2c(cc1OC)CN(Cc1ccc(C)s1)CC2 | 2427 | -10.8 | 3.3 | 3.8 | 3.2 | 0.5 | -7.1
CCCC(=O)N1CCN(c2ccc(NC(=O)c3cccs3)cc2Cl)CC1 | 1969 | 5.3 | -0.3 | 9.0 | -10.0 | -6.4 | -16.4

Whole records as entered above. Screens in order: Autofluor counter, RN4220 kill, BJeLR lethal, ugtP null kill, Mtb hypoxia inh, Mtb hypoxia inh growth, PrP UTR inh
Cc1ccc2c(c1)N(C(=O)CCC(=O)NCc1ccccc1)CC(C)O2 (stereo unspecified) is listed as 4371, 1.1, -1.6, 10.3, nt, nt, -5.6
Cc1ccccc1NC(=O)CSc1n[nH]c(-c2ccccn2)n1 is listed as 5393, 0.5, 3.7, -6.8, 2.0, -1.1, -17.4
COc1cc2c(cc1OC)CN(Cc1ccc(C)s1)CC2 is listed as 2427, -10.8, 3.3, 3.8, 3.2, 0.5, -7.1
O=C1c2oc3ccc(Br)cc3c(=O)c2C(c2cccc(F)c2)N1CCO (stereo unspecified) is listed as 5129, -2.6, -1.0, 13.9, nt, nt, -3.1
COc1ccc(N2CCN(C(=O)CSc3nnc(NC(=O)C4CCC4)s3)CC2)cc1 is listed as 4911, 6.2, 0.9, 0.8, 4.3, 12.2, -14.8

The listing continues.
SMILES | Autofluor counter | RN4220 kill | BJeLR lethal | ugtP null kill | Mtb hypoxia inh | Mtb hypoxia inh growth | PrP UTR inh
Nc1ccc2nn(-c3ccc(F)cc3)nc2c1 | 3834 | 6.7 | -5.3 | 15.0 | 6.4 | -3.0 | -66.4
CC(=O)c1cccc(NC(=S)NC(=O)c2cccc(C)c2)c1 | 2058 | 3.2 | -7.0 | 7.2 | 2.9 | 1.3 | -78.6
CCOc1c(Br)cc(C(=O)NCCCn2ccnc2)cc1OC | 4333 | -2.2 | -4.0 | -2.4 | 0.0 | 4.2 | -49.2
Cc1nc2c(-c3ccccc3)c(C)nn2c(C)c1CCC(=O)N1CCOCC1 | 6197 | 6.2 | -4.1 | -2.8 | 3.8 | 18.6 | -12.4
Cc1nc2sc(C#N)c(N)c2c2c1CCCC2 | 3172 | 5.4 | -1.3 | -5.8 | 2.4 | -5.9 | -13.5
Cc1ccc(CCNS(=O)(=O)c2ccc(C)cc2)cc1 | 14229 | 1.9 | -21.1 | 0.4 | 7.9 | 1.4 | -1.2
COc1cccc(C(=O)COc2ccc(NC(=O)c3ccccc3)cc2)c1 | nt | 2.8 | 0.2 | -6.6 | 6.4 | 2.0 | -11.6
CCn1nc(NS(=O)(=O)c2ccccc2)c2cc3cccc(C)c3nc21 | 19546* | 10.0 | 5.9 | -12.3 | 1.6 | -2.7 | -15.6
COc1ccc(CCN(C)CCCC(C#N)(c2cc(OC)c(OC)c(OC)c2)C(C)C)cc1OC (stereo unspecified) | 6101 | 6.4 | -0.4 | 3.1 | 0.8 | 8.2 | -7.3
S=C(Nc1ccc2[nH]ccc2c1)NC1CCCCC1 | 4389 | 7.0 | -10.3 | 13.9 | 4.6 | -0.7 | -79.9
CC(C)c1oc(=O)cc2c1[C@@H](O)[C@H]1OC(=O)[C@@]3(C)CC[C@@H](O)[C@@]2(C)C13 (stereo partly specified) | 3106 | nt | -11.0 | nt | nt | nt | -8.9
N#C/C(=C\c1ccc(-c2nc3ccccc3s2)o1)C(N)=O | 4382 | 4.9 | 7.1 | -1.9 | 10.7 | 12.9 | -75.7

Compounds were not picked by outcome, and some 4% of all compounds hit somewhere here.
